# High-throughput results: PubChem BioAssay, National Center for Advancing Translational Sciences (NCATS)
# StopGo reporter = FMDV 2A StopGo reporter, luciferase signal. human cells with a luciferase reporter of 2A StopGo recoding; control for the full effect not named in the record. Potency, µM (titrated, usually from 57.9 µM), for the others: at the top dose signal change, negative = less light. 1.2% of 410,000 active. AID 1159524; active = well fitted falling curve with a large enough effect; inconclusive = small, poorly fitted or top-dose-only effect; inactive = no such curve, though single readings can be large or run the other way; tested in HEK293T cells; further: on the % scale 0 is the no-effect control and ±100 the full control effect; nearly all actives have a fitted effect of over 45% in size; luciferase light after 4 h
# Cruzain inh noDet = cruzain (T. cruzi) inhibition without detergent | P25779 | purified cruzain, Z-FR-AMC fluorescence, no detergent | Potency, µM, for the others: max response, negative = inhibition, usual class: inhibitors | 2.3% of 200,000 active; active means well fitted curve in the direction sought with a large enough effect; inconclusive means small, poorly fitted or top-dose-only effect, or another doubt; inactive means no such curve, though single readings can be large; an effect the other way counts as inactive or inconclusive;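 further: plate controls were enzyme without inhibitor for no effect and buffer without enzyme for full effect; nearly all actives have a fitted effect of over 40% in size; top concentration of the series not given in the record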
# Target sequence (P25779 123-467 limits assumed): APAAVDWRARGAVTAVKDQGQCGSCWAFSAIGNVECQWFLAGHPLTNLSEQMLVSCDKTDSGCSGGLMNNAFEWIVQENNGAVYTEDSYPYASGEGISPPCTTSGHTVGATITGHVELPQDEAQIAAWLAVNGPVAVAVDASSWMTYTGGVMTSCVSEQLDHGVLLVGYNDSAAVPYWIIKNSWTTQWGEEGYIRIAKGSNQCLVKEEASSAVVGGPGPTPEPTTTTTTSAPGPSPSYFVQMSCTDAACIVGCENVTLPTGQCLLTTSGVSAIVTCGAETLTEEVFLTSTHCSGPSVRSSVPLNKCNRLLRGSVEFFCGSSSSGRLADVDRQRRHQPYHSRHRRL
#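 Detergent-free condition (0.00005% Triton X-100) in acetate buffer pH 5.5 with DTT. 1.5 nM enzyme and compound were pre-mixed 15 min, then 2 uM Z-FR-AMC substrate added; reaction progress from fluorescence change between first and third reads (60 s).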
# LASV entry inh = inhibitors of Lassa virus binding or cell entry; Lassa virus pseudotype entry inhibition, cell reporter; control for the full effect not named in the record; Potency, µM (highest dose often 37.9 µM), for the others: at the top dose activity change, negative = inhibition, actives largely listed as inhibitors; 1.2% of 300,000 active; active means well fitted inhibition curve with a large enough effect; inconclusive means small, poorly fitted or top-dose-only effect, or effect the other way; inactive means flat fitted curve, though single readings scatter; tested in HEK293 cells; further: on the % scale 0 is the no-effect control and ±100 the full control effect; nearly all actives have a fitted effect of over 50% in size; luciferase read-out
# RE007 growth inh = less growth of the S. pombe RE007 Vpr strain; AID 651644; S. pombe RE007 Vpr strain, BacTiter-Glo ATP luminescence, 24 h; control for the full effect not named in the record; Potency, µM (highest dose often 92.2 µM), without a hit: top-dose activity change, negative = less growth; 0.21% of 360,000 active; active = well fitted falling curve with a large enough effect; inconclusive = small, poorly fitted or top-dose-only effect; inactive = no such curve, though single readings can be large or run the other way;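 further: on the % scale 0 is the no-effect control and ±100 the full control effect; nearly all actives have a fitted effect of over 50% in size; the assay follows cell death caused by Vpr and the record does not say whether a fall means rescue or toxicity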
#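 Fission yeast RE007 carrying one integrated HIV-1 vpr copy, seeded at OD 0.01 in PMG+AL medium with 23 nL pinned compound. Grown 24 h at 30 degrees; viability read by BacTiter-Glo luminescence after 5 min.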
# NS1 inh = blocks influenza NS1 protein function; S. cerevisiae slowed by influenza A NS1, growth recovery by OD600; Potency, µM (highest dose often 46.1 µM), inactives show top-dose activity, positive = more growth; 0.4% of 270,000 active; further: actives are rising curves; nearly all actives have a fitted effect of over 50% in size
#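 In this qHTS, NS1 from influenza A is expressed in budding yeast, where it slows growth. Cells are switched from glucose to 2% galactose medium (pH 6.0, -URA), treated with compound, and growth recovery is read at OD600.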
# SARS PLpro yeast = SARS-CoV PLP inhibition in yeast; Potency, µM (titrated, usually from 32.9 µM), inactives show top-dose activity, positive = growth rescue; AID 485353; S. cerevisiae expressing SARS-CoV PLpro, growth rescue; control for the full effect not named in the record; 0.19% of 330,000 active; further: 0% is about no effect; nearly all actives have a fitted effect of over 55% in size; growth read by luminescence after 48 h
# Cruzain Triton = blocks cruzain activity in presence of Triton detergent. purified cruzain, Z-FR-AMC fluorescence, 0.01% Triton. Potency, µM, without a hit: max response, negative = inhibition, actives largely listed as inhibitors. 0.43% of 200,000 active; active means well fitted curve in the direction sought with a large enough effect; inconclusive means small, poorly fitted or top-dose-only effect, or another doubt; inactive means no such curve, though single readings can be large; an effect the other way counts as inactive or inconclusive;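 further: plate controls were neutral wells for no effect and buffer without enzyme for full effect; nearly all actives have a fitted effect of over 40% in size; top concentration of the series not given in the record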
#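 Read-out: AMC fluorescence (360 nm excitation, 450 nm emission), four reads over 2 min, first-to-third difference used. Conditions: cruzain 1.5 nM, Z-FR-AMC 2 uM, pH 5.5 acetate, 5 mM DTT, 0.01% Triton X-100.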
# Marburg entry inh = Marburg virus entry inhibition | Marburg virus pseudotyped entry inhibition, cell reporter; control for the full effect not named in the record; about a third of the inactives were read at about 46 µM | Potency, µM (titrated, usually from 37.8 µM), without a hit: at the highest dose activity change, negative = inhibition, hits mostly inhibitors | 1.8% of 300,000 active; active = well fitted inhibition curve with a large enough effect; inconclusive = small, poorly fitted or top-dose-only effect, or effect the other way; inactive = flat fitted curve, though single readings scatter; tested in HEK293 cells; about a fifth of its hits are not listed in these tables; further: on the % scale 0 is the no-effect control and ±100 the full control effect; luciferase read-out
# The depositor's hits bear a star; ? = inconclusive; . = not tested or not shown; & = joins results of further samples; [ ] = remark or other dose. Unless noted, the call rests on the fitted dose curve; in most records, active means well fitted rising curve with a large enough effect; inconclusive means small, poorly fitted or top-dose-only effect; inactive means no such curve, though single readings can be large or run the other way. Potency means the concentration at half of the fitted maximal effect. No enrichment for hits. About 4.6% of those tested had a hit in this group.
Structure | StopGo reporter | Cruzain inh noDet | LASV entry inh | RE007 growth inh | NS1 inh | SARS PLpro yeast | Cruzain Triton | Marburg entry inh
O=C(Nc1ccccc1C(=O)NC(Cc1c[nH]c2ccccc12)C(=O)O)c1ccccc1 (stereo not drawn) | ? | . | 3.9%[46.1 µM] | 23.2% | 1.5% | 0.2% | . | 10.1%[46.1 µM]
O=C(Nc1cccc(S(=O)(=O)NC2=NCCC2)c1)c1cc(F)c(F)c(F)c1F | -7.5% | . | 14.4% | -12.6% | . | 3.4% | . | ?
Cc1ccc(S(=O)(=O)N2CCc3ccccc3C2)cc1C | -12.4% | . | . | -11.9% | 0.8% | -2.2% | . | .
CCc1nc(SCC(=O)N2CCOCC2)c2c(=O)n(C)c(=O)n(C)c2n1 | -13.6% | -17.1% | . | 5.4% | 1.1% | 0.6% | -3.5% | .
COc1ccc(NC(=O)CN(C)Cc2cccs2)cc1Cl | 60.5%[activator] | . | ? | 7.5% | -24.6% | -1.0% | . | ?
O=C(NCCOC(=O)c1ccncc1)c1ccccc1 | ? | 4.5% | ? | 27.7% | -4.6% | 0.9% | -2.1% | 4.7%
Cc1c(NS(=O)(=O)c2ccc3c(c2)OCCO3)cccc1-c1nc2cccnc2s1 | ? | 15.8µM* | . | 6.5% | 14.7% | -25.2% | -1.2% | 0.5%
Cn1c(=O)c(-c2cc(Br)ccc2N)nc2ccccc21 | 46.7%[activator] | -17.4% | 13.4% | 97.8% | -9.2% | -5.7% | -1.3% | 27.5%
O=C(NCCc1cn2ccccc2n1)c1ccccc1F | -15.3% | ? | 16.2% | -18.2% | 5.5% | 0.2% | -13.9% | 11.9%
CC1=CCC2C(=O)N(c3ccc(C(=O)N4CCCCCC4)cc3)C(=O)C2C1 (stereo not drawn) | -24.4% | 4.2% | -1.5% | -4.5% | 1.1% | 3.3% | 3.5% | ?
CC(=O)N1CCc2cc(S(=O)(=O)NCc3ccc(C)cc3)ccc21 | -4.7% | . | -18.8%[46.1 µM] | 5.0% | -5.5% | 3.6% | . | ?
COc1ccc2cc(C(=O)C3CCCN(C(=O)c4cc5nc(C)cc(C)n5n4)C3)ccc2c1 (stereo not drawn) | -4.6% | . | 0.5%[46.1 µM] | -9.8% | -5.7% | 2.8% | . | -23.5%[46.1 µM]
COC(=O)c1sc(-c2ccc(C(C)(C)C)cc2)cc1NC(=O)/C=C/C(=O)O | ? | . | ? | 0.2% | -31.7% | -4.1% | . | ?
O=C(Cc1ccccc1C(=O)O)Nc1cccc2ccccc12 | 24.5% | . | -1.5%[46.1 µM] | 0.6% | -0.3% | 20.4% | . | ?
N#CC1=C(N)N(c2ccc(Br)cc2)C2=C(C(=O)CCC2)C1c1cccnc1 (stereo not drawn) | 37.7%[activator] | -2.8% | 2.3% | 4.9% | -2.0% | 1.8% | -6.7% | ?
O[C@@H](CNC[C@H](O)c1ccccc1)c1ccccc1 | -5.1% | 11.9% | 5.9% | 2.1% | -2.5% | -8.9% | 1.3% | ?
Cc1nn(-c2ccccc2)c(C)c1/C=N/NC(=O)c1cc(C2CC2)[nH]n1 | -2.5% | 7.0% | -20.1% | -8.1% | 7.5% | 0.5% | 0.3% | ?
COCCOC(=O)C1=C(C)Nc2nc(C)nn2C1c1ccccc1 (stereo not drawn) | 18.7% | -4.5% | 6.8% | 1.7% | 1.2% | -3.6% | -7.9% | 10.8%
C=CC1C(N2CCOCC2)C(C)(C)S1(=O)=O (stereo not drawn) | 0.0% | 9.7% | -10.2% | 2.2% | 12.6% | 1.5% | 4.2% | 1.6%
Cc1ccccc1OCCOc1ccc([N+](=O)[O-])cc1/C=N/n1cnnc1 | -8.3% | . | ? | -1.3% | . | -4.9% | . | ?
COc1ccc(CC(=O)N2CCN(c3cccc(Cl)c3)CC2)cc1OC | -28.4% | . | ? | 0.0% | -35.6% | 1.7% | . | ?
CC(C(=O)O)C1SC(=O)NC1=O (stereo not drawn) | 6.4% | 0.6% | 3.2% | 2.9% | 2.3% | 1.4% | 0.4% | 1.6%
Cc1ccc(OCCNC(=O)c2cncc(Br)c2)cc1C | -15.1% | -7.2% | 1.8% | -17.7% | -82.0% | -12.8% | 1.3% | 8.6%
CC(=O)[C@H]1[C@@H]2C(=O)N(c3cccc(Cl)c3)C(=O)[C@@H]2[C@H]2c3ccccc3C=CN21 | -8.3% | ? | -6.2% | -14.0% | 10.6% | -8.8% | -8.8% | 0.0%&0.0%
O=C1c2ccccc2C(O)N1c1ccc(Cl)cc1 (stereo not drawn) | 22.3% | -27.1% | . | -10.0% | -11.5% | 2.2% | -2.2% | 0.2%
COc1ccc(CCNC2CC(=O)N(C)C2=O)cc1OC (stereo not drawn) | 10.8% | 6.5% | -5.3% | -3.0% | 10.8% | 4.6% | 1.9% | 6.8%
COCCNCCCOc1ccc(C(C)(C)c2ccccc2)cc1 | -12.6% | 5.0% | ? | -11.6% | -10.3% | -10.7% | 1.7% | ?
COc1cccc(CNC(=O)CNS(=O)(=O)c2ccc(Br)s2)c1 | -2.9% | . | 0.3% | 2.1% | 18.9% | 2.1% | . | ?
CC(C)CNC(=O)NC(=O)COC(=O)C1CSC2(c3ccc(F)cc3)CCC(=O)N12 (stereo not drawn) | 8.4% | . | -12.2%[46.1 µM] | 11.7% | . | 0.1% | . | 0.3%[46.1 µM]
Cc1cccc(OCCC(=O)Nc2nnc(C)s2)c1 | 2.6% | . | 1.9% | -8.4% | . | -1.1% | . | -6.9%[46.1 µM]

# The listing continues:
Structure | StopGo reporter | Cruzain inh noDet | LASV entry inh | RE007 growth inh | NS1 inh | SARS PLpro yeast | Cruzain Triton | Marburg entry inh
COc1cc(/C=C(\C#N)c2nc3ccccc3s2)cc([N+](=O)[O-])c1O | -19.9% | . | 0.0% | ? | . | -4.1% | . | ?
CC1CCc2nc(N)c(C#N)c(-c3ccncc3)c2C1 (stereo not drawn) | -13.9% | -9.7% | 27.0% | 6.4% | ? | 4.4% | 4.4% | -1.1%
COc1cc(C2C(C(=O)Nc3ccccc3)=C(C)Nc3nc(SCC(=O)c4ccc(C)cc4)nn32)ccc1O (stereo not drawn) | -12.7% | 11.4% | 9.3%[46.1 µM] | . | . | . | 2.7% | .
CCOC(=O)N1CCc2cc(OC)c(OC)c3c2c1cc1cc(OC)c(OC)cc13 | ? | . | ? | -1.6% | . | . | . | 7.94µM*
CCOC(=O)CNC=C(C(=O)OCC)C(=O)OCC | 0.0% | -2.5% | -3.4% | -2.1% | -1.0% | -1.1% | -3.5% | 22.2%[46.1 µM]
CSc1nccc(Nc2ccccc2)c1C#N | -21.6% | -9.2% | 17.8% | -10.0% | -26.4% | -0.2% | -3.5% | -23.5%
Cn1c(=O)c2cn3ncccc3c2n(C)c1=O | . | -9.3% | . | . | 28.0% | 3.5% | -1.7% | .
O=C(NCc1ccccc1)C(c1ccccc1)N(C(=O)c1csnn1)c1ccccc1 (stereo not drawn) | 10.1% | . | -13.1%[46.1 µM] | -19.0% | -17.3% | -1.7% | . | ?
COc1ccc(CCN2CC(C(=O)NCCN3CCNC3=O)CCC2=O)cc1 (stereo not drawn) | -8.9% | . | . | 8.4% | -0.4% | -2.5% | . | .
CC(=O)C1C(c2ccc([N+](=O)[O-])cc2)C2C(C)=NN=C2CC1(C)O (stereo not drawn) | -16.8% | . | -6.1% | 2.6% | 10.5% | 2.0% | . | 0.1%
O=C(Nc1ccc(Cl)c(Cl)c1)Nc1ccc([N+](=O)[O-])cn1 | -8.7% | . | . | 1.9% | -0.4% | 1.2% | . | .
Cc1cnc(C(=O)OCC(=O)N2CCN(C(=O)c3ccco3)CC2)cn1 | -18.6% | -5.2% | 20.1% | 2.8% | 11.4% | 5.2% | 2.4% | -3.7%
O=C(Nc1ccncc1)c1ccccc1Cl | 18.7% | . | . | -11.3% | 0.9% | -0.6% | . | .
O=C1C2C3C=CC(C4CC34)C2C(=O)N1c1nccs1 (stereo not drawn) | -0.8% | -1.1% | 4.9% | 27.4% | 8.7% | ? | 2.2% | 3.1%
Cc1cc(N2CCc3ccccc32)n2ncnc2n1 | -15.2% | . | 0.5% | -2.7% | 5.4% | . | . | -9.4%
CCOC(=O)c1c(N)sc2c1CCCC2=O | 3.0% | . | -0.4% | 3.6% | -2.5% | 0.3% | . | 13.1%[46.1 µM]
Cc1sc2nc(CSc3nc4ccccc4c(=O)n3CCCN3CCOCC3)[nH]c(=O)c2c1C | -15.2% | -18.9% | -35.9% | 9.9% | 1.1% | 0.6% | -4.8% | ?
CCC(C)S(=O)(=O)c1snnc1C (stereo not drawn) | 0.0% | 3.4% | -8.8% | -0.6% | -2.0% | 9.9% | -5.1% | 1.4%
COc1ccccc1NS(=O)(=O)c1cc(NC(=O)c2ccncc2)ccc1N1CCOCC1 | 51.7%[activator] | ? | -23.9% | -10.6% | -3.4% | 0.5% | -4.1% | -2.8%
O=C(Cn1nnc(-c2ccccc2)n1)OCc1ccccc1 | 3.5% | 1.7% | ? | ? | -22.5% | -1.1% | -7.5% | 1.3%
CCOc1ccc(C(=O)Nc2cccc3cccnc23)cc1 | 18.4% | . | -16.5% | 7.2% | -18.0% | -2.4% | . | 13.7%
COc1ccccc1-n1c(-c2cc(-c3ccco3)[nH]n2)n[nH]c1=S | -2.6% | . | . | 20.4% | 8.9% | 0.2% | . | .
Nc1ccc(S(=O)(=O)Nc2nccs2)cc1N=Nc1ccccc1[N+](=O)[O-] | 38.1%[activator] | . | -12.6%[46.1 µM] | 4.8% | . | . | . | -20.0%[46.1 µM]
O=C1C2C3C=CC(C3)C2C(=O)N1Cc1ccc(CN2C(=O)C3C4C=CC(C4)C3C2=O)cc1 (stereo not drawn) | . | -0.3% | -19.6% | 1.8% | -2.9% | -1.5% | 5.6% | 0.6%
O=C(Cn1c(=O)oc2cc(S(=O)(=O)N3CCCCCC3)ccc21)NCc1ccccc1Cl | ? | -4.6% | ? | . | . | . | -7.3% | .
